Beta apoptosis: beta cell apoptosis inhibition; protection from apoptosis, % (test concentration not listed); 0.8% of 300,000 active; INS-1E cytokine-induced death, ATP luminescence, 48 h; percent of positive-control rescue, neutral wells zero; AID 435005;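 active = all replicates at 75% or more, or half of them and the mean; inconclusive = half reach 75% but not the mean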;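 also: 0% = cytokine-treated negative control wells and 100% = positive control rescue; higher means more ATP so stronger rescue from cytokine killing; wells of about 40 µL received 100 nL stock; the first replicate is given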
Beta2AR agonist: activates human beta-2 adrenergic receptor causing internalization; 0.43% of 340,000 active; Am2.2-beta2AR cells, FAP receptor internalization, flow cytometry; reference of the scale not given here; AID 504454; P07550; response, % (no concentration beside the values);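 active = response above a set limit, near 3 SD of response in nonfluorescent compounds, cut at about 42% in these data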;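 also: stock transfer was 100 nL into about 11 µL; a reference agonist was the positive control; negative values mostly stem from fluorescent compounds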
Target sequence (P07550 whole entry, looked up): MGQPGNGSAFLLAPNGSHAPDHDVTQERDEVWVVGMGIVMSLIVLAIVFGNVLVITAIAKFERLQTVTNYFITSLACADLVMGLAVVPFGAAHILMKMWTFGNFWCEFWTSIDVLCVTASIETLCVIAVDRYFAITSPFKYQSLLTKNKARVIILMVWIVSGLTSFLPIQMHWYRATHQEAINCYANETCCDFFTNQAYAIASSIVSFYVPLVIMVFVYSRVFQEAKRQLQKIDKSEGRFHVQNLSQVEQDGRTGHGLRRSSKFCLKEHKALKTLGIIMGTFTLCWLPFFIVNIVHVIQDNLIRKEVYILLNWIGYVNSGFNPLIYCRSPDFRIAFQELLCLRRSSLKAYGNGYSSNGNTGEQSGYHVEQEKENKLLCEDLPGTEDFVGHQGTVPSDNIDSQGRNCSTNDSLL
RanGTP-Impb inh: inhibitors of RanGTP-importin-beta interaction, primary screen, biochemical, FRET, CFP-Ran, YFP-importin-beta, homogeneous; cell-free CFP-Ran/YFP-importin-beta FRET ratio; inhibition, % (no concentration beside the values); 1.1% of 300,000 active;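 active = most replicates above 15%; inconclusive = exactly half above 15%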;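 also: 0% = DMSO wells and 100% = Ran loaded with GDP instead of GTP; wells of about 40 µL received 100 nL stock; the first replicate is given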
LANA-H2A inh: blocks KSHV LANA binding to histone H2A/H2B; Q9QR71; 0.6% of 320,000 active; cell-free LANA-H2A/H2B peptide, fluorescence polarization; inhibition, % (test concentration not listed); AID 2629; in the data active = inhibition mostly above about 10%, no sharp cut-off; inactive = mostly below about 6.7%;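 also: stock transfer was 7.5 nL into about 10 µL; 0% = median of vehicle wells and 100% = median of positive control wells; one replicate is shown; the record names a cut of 25% in any replicate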
A1 inh: inhibitors of the anti-apoptotic protein A1, read as caspase activation; MEF A1-2A-BIM cells, Caspase-Glo 3/7 luminescence, 3 h; percent of clofoctol response, vehicle zero; caspase activation, % (test concentration not listed); 0.066% of 330,000 active; AID 2462;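 active = over half of replicate activation scores above 10%, or exactly half above 10 with the replicate mean above 10; inconclusive = replicate mean below 10 yet half the replicates above 10; inactive = over half of replicates below 10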;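 also: wells of about 30 µL received 50 nL stock; many hits fall short of the cut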
T cruzi repl: T. cruzi replication inhibition | AID 1885 | T. cruzi beta-gal in NIH3T3, luminescence, 90 h | 1.4% of 300,000 active | inhibition, % (concentration not given with the values);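 active = mean inhibition across valid replicates above about 55%, limit read from the data; inconclusive = mean below that limit but half or more replicates reach it; inactive = mean below it, under half of replicates reach it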;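 also: signal also drops with host cell toxicity which is not excluded here; 0% = plate median of DMSO wells and 100% = zero luminescence signal; higher percent means less beta-gal luminescence so fewer parasites; stock transfer was 50 nL into about 50 µL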
Calb FLC: C. albicans growth modulation with fluconazole; C. albicans CaCi-2 (fluconazole-resistant clinical isolate) + fluconazole, Alamar Blue growth, 48 h; growth inhibition, % (test concentration not listed); 0.57% of 300,000 active; AID 1979;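 active = most replicates above 75%; inconclusive = exactly half above 75%; inactive = most below 75%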;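 also: all wells also contain fluconazole at 8 µg/ml as a sub-toxic cotreatment; 0% = median of DMSO wells and 100% = median of geldanamycin control wells; wells of about 8 µL received 7.5 nL stock; the first replicate is given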
UCH37 DUB inh: inhibitors of human deubiquitinating enzyme UCH37 | Q9Y5K5 | purified proteasome/UCH37, Ub-AMC cleavage fluorescence | inhibition, % (test concentration not listed) | 0.33% of 330,000 active | AID 588478;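 active = mean of two replicates above 20%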;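 also: 0% = compound-free wells with enzyme and 100% = wells lacking proteasome; stock transfer was 100 nL into about 20 µL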
Target sequence (Q9Y5K5 whole entry, looked up): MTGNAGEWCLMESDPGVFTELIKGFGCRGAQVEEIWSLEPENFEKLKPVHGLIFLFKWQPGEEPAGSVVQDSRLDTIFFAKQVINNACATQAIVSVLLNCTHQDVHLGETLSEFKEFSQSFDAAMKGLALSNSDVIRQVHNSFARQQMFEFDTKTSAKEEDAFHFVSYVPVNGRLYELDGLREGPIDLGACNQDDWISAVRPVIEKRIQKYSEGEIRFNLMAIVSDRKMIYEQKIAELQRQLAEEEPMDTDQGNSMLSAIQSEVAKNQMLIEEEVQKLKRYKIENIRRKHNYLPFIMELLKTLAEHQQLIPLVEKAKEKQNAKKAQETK
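system = Proteasome-associated human UCH37 deubiquitinase | amount = 0.15 nM proteasome as dispensed | medium = pH 7.4 Tris-HCl (50 mM) with ovalbumin, ATP-MgCl2, DTT | incubation = 30 min preincubation with enzyme, 25 min cleavage at room temperature | detection = AMC fluorescence 355/460 nm | read-out basis = percent inhibition | controls = no-proteasome and no-compound wells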
Numbers without * were called inactive; i = inactive; ? = inconclusive; . = not tested or not shown.

SMILES	Beta apoptosis	Beta2AR agonist	RanGTP-Impb inh	LANA-H2A inh	A1 inh	T cruzi repl	Calb FLC	UCH37 DUB inh
O=C(Nc1ccc(F)c(Cl)c1)NC1CC1	-0.8	-0.9	1.7	0.3	-1.4	-17.1	83.0*	3.7
O=C(O)c1ccc(N2C(=O)/C(=C/C=C/c3ccccc3)SC2=S)cc1	-1.0	11.2	-0.1	0.7	0.0	-14.9	27.2	.
O=C(NC1CCC(O)CC1)c1ccc2c(c1)S(=O)(=O)N=C1CCCCCN12 (stereo not given)	-2.4	-6.8	-1.2	-0.7	0.9	-8.1	4.9	5.0
O=C(O)c1ccccc1C(=O)c1ccc(Sc2ccc(Cl)cc2)c([N+](=O)[O-])c1	-1.7	1.4	-2.2	2.2	0.1	-4.7	-1.6	7.7
Cc1ccc(N2CC(C(=O)Nc3cccnc3)CC2=O)cc1C (stereo not given)	3.1	-0.8	2.0	2.2	0.7	0.4	1.8	2.1
COCCN(C(=O)CN1CCN(S(=O)(=O)c2ccc(F)cc2)CC1)c1c(N)n(Cc2ccccc2)c(=O)[nH]c1=O	-1.0	-2.8	2.9	5.4	-0.2	-12.8	-10.9	-0.2
CCOc1ccc(C(=O)NCc2ccc3c(c2)OCO3)cc1OCC	2.2	-4.8	0.8	-1.4	-0.8	9.8	-20.2	1.3
C=CC[N+](C)(C)CCN1C(=O)C2C(c3ccccc3)C=CC(c3ccccc3)C2C1=O (stereo not given)	-2.1	-4.6	-0.1	2.6	-0.2	3.9	7.9	0.9
COc1ccc(C2C(C#N)=C(N)Oc3cc(C)n(Cc4ccncc4)c(=O)c32)cc1 (stereo not given)	-3.3	0.4	?	-6.5	-0.5	-2.9	-1.1	-2.3
O=Cc1cn(CC(=O)N2CCOCC2)c2ccccc12	-7.5	1.0	6.2	-2.0	-0.2	-13.7	-12.2	4.8
CCOc1ccc(NC(=O)N2CCC(C(=O)c3ccc(F)cc3)CC2)cc1	.	4.9	4.2	2.2	0.3	26.8	-63.9	1.9
O=C(/C=C/c1cccc([N+](=O)[O-])c1)NCCSc1ccccc1	-3.4	0.6	-3.0	2.0	-0.4	-8.4	14.1	2.3
O=C(COc1ccc([N+](=O)[O-])cc1)N(Cc1ccccc1)Cc1ccccc1	0.2	5.2	?	1.5	-0.3	7.6	-2.2	0.0
COC(=O)c1cc(NC2c3ncccc3C(=O)N2Cc2ccccc2)cc(C(=O)OC)c1 (stereo not given)	0.2	7.3	-1.3	-5.1	0.6	-1.7	2.0	-7.5
Cc1[nH]c2ccc(C(=O)OCCN(C)C)cc2c1C	-0.7	-5.6	-0.7	1.8	-0.2	8.7	-5.7	1.7
CCOC(=O)C(=O)N/N=C/c1cccc(Br)c1	1.6	2.4	6.3	1.1	1.5	-31.3	-4.1	.
OCCC1CN(Cc2c(O)ccc3ccccc23)CCN1CCc1ccccc1 (stereo not given)	-2.6	-1.0	1.5	1.7	0.0	-30.1	10.1	-7.5
N=c1sccn1CC(=O)NCCc1ccc(Cl)cc1	-3.8	12.4	1.6	1.4	-0.5	-1.5	-5.6	7.4
CCCCn1c(CCC(=O)O)nc2c1c(=O)[nH]c(=O)n2CCC	-0.8	-4.9	-1.0	2.5	1.0	-2.5	34.0	2.8
Nc1ccc(C(=O)NCC(=O)O)cc1	0.7	-1.4	.	0.4	0.4	.	.	2.4
CC1CCN(S(=O)(=O)c2cccc(C(=O)N(C)C3CCS(=O)(=O)C3)c2)CC1 (stereo not given)	-1.3	-6.9	-0.7	-0.6	1.0	0.9	7.7	4.8
CCC(=O)NCCc1nc2cc(NC(=O)Nc3ccccc3)ccc2n1C	-4.6	-6.2	0.5	2.6	-11.7	-2.3	-1.2	2.0
COc1ccc(CC2C(=O)OC(C)(C)OC2=O)c(Cl)c1OC	.	-1.6	-1.8	6.4	1.3	0.9	11.0	0.1
Cc1cccc(/C=C/c2nc3ccccc3c(=O)[nH]2)c1	7.2	-7.7	6.3	2.2	-8.8	-48.8	1.3	i
CCc1ccc(-c2cc(C)no2)cc1S(=O)(=O)NCCc1ccccc1	6.6	-20.8	0.7	-3.3	1.9	15.4	12.9	-0.3
COc1ccc(C)cc1NC(=O)CSc1ccc(-c2ccco2)nn1	-0.6	-11.6	1.9	6.9	0.6	-2.4	5.1	2.5
CC1(C)CCC[C@@]2(C)CC=C(C(=O)O)[C@@H]3C[C@]312	-0.9	6.2	1.4	0.4	0.1	5.6	-2.8	-1.1
O=C(COC(=O)[C@@H]1CCCN1S(=O)(=O)c1ccccc1F)c1ccccc1	-4.2	11.1	1.1	0.1	-0.6	-4.9	-2.0	2.9
O=C(Nc1cccc(O)c1)c1noc2c1CCCCC2	4.4	-6.5	4.2	-4.6	0.9	-3.5	-5.6	2.0
COC(=O)C[N+](C)(C)C/C=C\c1ccccc1	1.9	-0.2	?	1.0	0.8	-7.0	-0.7	0.2
CCc1cccc(C)c1NC(=O)CSc1n[nH]c(N)n1	-0.1	6.4	.	-1.2	-0.4	.	.	2.8
CC(=O)N(C(C)=O)c1ncc2c([nH]c3ccccc32)c1C#N	-17.1	25.7	0.5	5.0	-0.3	6.3	-11.3	-87.4
Cn1nnnc1Sc1ncnc2scc(-c3ccc(Cl)cc3)c12	-9.1	85.5*	.	-3.7	1.9	.	.	.
CCC1Oc2ccccc2N(CC(=O)NCCCN2CCCCC2CC)C1=O (stereo not given)	-4.5	-1.9	2.3	2.1	0.8	-18.9	-8.3	-1.7
Cc1ccccc1-c1nnc(-c2ccccc2)o1	1.2	-1.1	-0.2	-6.5	0.5	-17.9	-5.7	-0.4
COc1ccccc1C(=O)NNC(=O)c1sccc1-n1cccc1	-11.9	-7.9	5.5	5.2	-0.6	-11.1	29.6	0.5
CCCCC(O)(CCN1CCOCC1)c1ccc(Cl)cc1 (stereo not given)	0.8	4.6	-1.1	-1.8	0.0	-13.1	-13.6	5.0
COc1ccc(-c2nnn(CC(=O)N(CCCN3CCOCC3)C(C(=O)NC3CCCC3)c3ccc(C)o3)n2)cc1 (stereo not given)	3.9	-9.9	4.3	2.5	-0.1	23.5	-2.1	6.7
O=C(NCCc1ccccc1)C(c1cccs1)N(C(=O)c1csnn1)C1CC1 (stereo not given)	2.0	0.8	-1.0	3.8	-0.1	-8.3	0.8	2.8
O=C(O)/C=C/C(=O)NCCc1ccc(Cl)cc1	-4.1	0.1	-1.1	-1.6	0.4	-10.9	2.1	2.3
CC(=O)N1c2ccc(S(=O)(=O)N(C)CC(=O)NC3CCCC3)cc2CC1C (stereo not given)	-7.3	5.7	2.6	-0.8	-0.2	6.2	3.0	0.8
COc1ccc(C2CC(c3cccs3)Nc3nnnn32)cc1 (stereo not given)	0.8	12.6	1.1	3.0	-0.2	-3.3	2.9	0.9
COc1ccc(OCc2cc(C(=O)N3CCCC(O)C3)no2)c2ccccc12 (stereo not given)	-8.2	7.5	-1.2	3.1	-2.7	-3.3	10.9	12.6
COc1ccc(-c2nc(/C=C3\C(C)=Nc4ccccc43)c(O)o2)cc1	0.7	-14.9	27.7*	-5.7	-0.1	-14.5	1.4	5.4
CSc1nc2c(c(=O)n1-c1ccc(F)cc1)SCC2	.	-10.4	4.5	0.7	0.6	-2.5	9.0	9.1
O=C(COC(=O)c1ccc2ncsc2c1)Nc1ncc(Cl)cc1Cl	-1.4	-1.9	-1.6	3.0	-0.2	-24.2	-3.8	.
COCCn1c(SCC(=O)Nc2ccc3[nH]c(=O)[nH]c3c2)nc2ccccc2c1=O	-3.6	-8.0	-2.0	-2.9	0.0	0.8	1.8	1.1
CCOC(=O)c1[nH]nc(N)c1NC(=O)c1ccc(Cl)cc1Cl	-0.2	-1.4	3.5	0.8	0.5	-3.5	5.3	3.0
Cc1[nH]c2ccc(C(=O)NCC(C)(C)N3CCOCC3)cc2c1C	0.8	-4.7	-0.1	-3.8	0.0	0.3	0.2	0.3
O=C1COC(c2ccccc2)=CN1Cc1ccccc1	-3.8	1.6	0.2	2.8	1.3	-14.1	-1.5	7.0
CC(=O)c1ccc(OCC(=O)OCc2cc(-c3ccco3)on2)cc1	0.0	-3.8	.	3.0	0.1	.	.	5.7
O=C(COC(=O)c1cc(S(=O)(=O)N2CCCCC2)ccc1N1CCOCC1)NC1CCCCC1	11.8	-7.9	0.7	-2.0	-0.9	19.9	8.5	5.6
CCS(=O)(=O)C1=NSC2=NC(=O)/C(=C\c3cc(C)n(-c4cccc(OC)c4)c3C)C(=N)N21	-2.0	3.0	0.1	-0.4	0.2	-2.7	56.8	-8.8
CCCC1CCC(=NNC(=O)OC(C)(C)C)CC1 (stereo not given)	-7.5	14.2	1.0	-2.1	-0.2	-7.8	6.1	5.0
COc1ccc(/C=C/c2c(-c3cccc(C)c3)oc3ccc(-c4ccc5c(c4)OCO5)cc23)cc1	2.8	.	0.0	2.1	0.8	-15.5	-7.0	-197.7

Screens deposited in PubChem by several laboratories.
